# hNpr1 antagonist: human Npr1 receptor antagonism | P16066 | HEK293 hNpr1 GloSensor cGMP, ANP-stimulated luminescence | Potency, µM (titrated, usually from 46.3 µM), without a hit: at the highest dose activity change, negative = inhibition, actives largely listed as inhibitors | actives 1.6% (n = 76,000) | AID 1347048; active = well fitted inhibition curve with a large enough effect; inconclusive = small, poorly fitted or top-dose-only effect; inactive = no such curve, though single readings can be large or run the other way;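 further: nearly all actives have a fitted effect of over 60% in size; nearly all hits also lower the signal before the agonist is added; a reference antagonist and vehicle were the controls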
# Target sequence (P16066 whole entry, looked up): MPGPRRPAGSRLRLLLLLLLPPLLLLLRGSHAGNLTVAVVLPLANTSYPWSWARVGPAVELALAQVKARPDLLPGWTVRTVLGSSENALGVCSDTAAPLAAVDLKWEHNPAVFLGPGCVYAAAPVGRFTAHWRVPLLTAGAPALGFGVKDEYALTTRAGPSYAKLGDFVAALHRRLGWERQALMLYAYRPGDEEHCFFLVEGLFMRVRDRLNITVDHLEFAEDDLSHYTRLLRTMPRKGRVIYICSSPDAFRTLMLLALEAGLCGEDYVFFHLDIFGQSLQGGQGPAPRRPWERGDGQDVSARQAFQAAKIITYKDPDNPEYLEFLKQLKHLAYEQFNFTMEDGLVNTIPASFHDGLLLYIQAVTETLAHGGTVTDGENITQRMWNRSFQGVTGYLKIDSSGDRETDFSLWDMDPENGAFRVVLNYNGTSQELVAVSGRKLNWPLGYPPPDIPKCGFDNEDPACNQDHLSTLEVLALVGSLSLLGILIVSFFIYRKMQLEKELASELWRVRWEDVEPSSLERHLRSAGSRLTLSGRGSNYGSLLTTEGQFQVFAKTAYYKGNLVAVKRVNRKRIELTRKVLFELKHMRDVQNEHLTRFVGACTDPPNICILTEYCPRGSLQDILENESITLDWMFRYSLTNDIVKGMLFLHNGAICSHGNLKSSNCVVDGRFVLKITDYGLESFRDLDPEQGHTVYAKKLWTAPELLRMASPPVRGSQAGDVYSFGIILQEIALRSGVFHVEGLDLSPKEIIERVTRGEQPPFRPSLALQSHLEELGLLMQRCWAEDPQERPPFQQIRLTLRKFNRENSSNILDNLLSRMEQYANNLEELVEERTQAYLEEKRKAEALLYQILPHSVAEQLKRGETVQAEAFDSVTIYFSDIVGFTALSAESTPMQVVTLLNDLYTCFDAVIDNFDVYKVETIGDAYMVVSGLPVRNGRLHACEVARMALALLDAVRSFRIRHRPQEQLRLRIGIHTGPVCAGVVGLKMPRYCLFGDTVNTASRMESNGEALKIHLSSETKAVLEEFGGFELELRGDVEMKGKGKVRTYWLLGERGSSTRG
#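 Compound pre-incubated 30 min at room temperature on GloSensor-loaded HEK293 cells stably carrying hNpr1 and the pGS-40F cGMP biosensor. Stimulation uses hNppA at 0.1 nM final; luminescence is taken at baseline and 20 min post-agonist.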
# Active calls of the source: *; u = inconclusive; [ ] = another dose, or the depositor's remark. On the % scale 0 is the no-effect control and ±100 the full control effect; potency means the concentration at half of the fitted maximal effect.
# The first 6 compounds, ahead of the listing:
smiles	hNpr1 antagonist
O=C(NCCc1csc(-c2cccnc2)n1)C1CC2(CCNCC2)CN1 (stereo unspecified)	2%
O=C(C[C@@H]1C[C@@H]2C=C[C@H]1C2)NCc1cccnc1-n1cnc2ccccc21	0%
CNC(=O)C(C)(C)N1CCC[C@H]1C(=O)NC1CCCC1	2%[70.6 µM]
COc1cncc([C@@H](NC(=O)c2scc3c2OCCO3)C2CC(O)C2)c1 (stereo partly specified)	-9%
Cn1cc(CN2CCOC[C@H](Oc3ccccc3)C2)cn1	1%[70.6 µM]
COCCNC(=O)c1c(C)noc1-c1cc(OC)c(OC)c(OC)c1	4%

# The listing, previewed entries included:
smiles	hNpr1 antagonist
O=C(NCCc1csc(-c2cccnc2)n1)C1CC2(CCNCC2)CN1 (stereo unspecified)	2%
O=C(C[C@@H]1C[C@@H]2C=C[C@H]1C2)NCc1cccnc1-n1cnc2ccccc21	0%
CNC(=O)C(C)(C)N1CCC[C@H]1C(=O)NC1CCCC1	2%[70.6 µM]
COc1cncc([C@@H](NC(=O)c2scc3c2OCCO3)C2CC(O)C2)c1 (stereo partly specified)	-9%
Cn1cc(CN2CCOC[C@H](Oc3ccccc3)C2)cn1	1%[70.6 µM]
COCCNC(=O)c1c(C)noc1-c1cc(OC)c(OC)c(OC)c1	4%
COc1ccc(C2Cn3nnc(-c4noc(Cc5cccc(F)c5)n4)c3CO2)cc1 (stereo unspecified)	6%
COCCNC(=O)[C@H]1C[C@H](Oc2cccnc2)CN1C(=O)NCc1ccc(C)cc1	0%
Cc1ccc(-c2nocc2CCC(=O)NCc2ccc(F)cc2Cl)cc1	1%
CCn1cc(CN2CCN(C(=O)C3CCCNC3)CC2)ccc1=O (stereo unspecified)	1%
O=C(c1ccc(N2CC3CC(C2)[C@H]2CCCC(=O)N2C3)nc1)N1CCCCC1 (stereo partly specified)	-1%
CNC(=O)[C@@H]1CN(C(=O)COc2cccc(C)c2)C[C@H]1CO	3%
CCCNC(=O)N(C1CCOCC1)C1CCN(C(=O)c2ccc(OC)nc2OC)CC1	6%
CNC(=O)[C@@H](C1CC1)N1CCC[C@H]1C(=O)NCc1ccccc1	0%[70.6 µM]
COc1ccc(C(=O)N2CCCC(c3nc(CCOCC4CCCC4)no3)C2)cc1F (stereo unspecified)	u
CCN(C)C(C)C(=O)N1CCc2onc(-c3ccc(C(F)(F)F)cc3)c2C1 (stereo unspecified)	-2%
COCC1CN(C(=O)Cn2nc(C(F)(F)F)cc2C)CC12CCNCC2 (stereo unspecified)	6%
Cc1ccc(Cl)cc1NC(=O)Cn1c(C)cc2nc3n(c(=O)c21)CCC3	2%
NC(=O)CN1CCC(c2nc(-c3ccc4nc[nH]c4c3)no2)CC1	3%
COc1cc(CNCCc2ccc(F)cc2)ccc1OCC(O)CN1CCSCC1 (stereo unspecified)	-1%
O=C1OC[C@@H]2CCN(C3COC3)Cc3ccc(F)cc3N12	5%[70.6 µM]
Cc1ccc(C)c(CNC(=O)Cn2c(C)ccc(NS(=O)(=O)c3ccccc3)c2=O)c1	2%
CCc1noc(-c2cccn3c(CNC(=O)c4ccccc4)nnc23)n1	9%
COc1cc(-c2nc(-c3c(C)noc3C)cc3c2cc(C)n3C)ccn1	-1%[70.6 µM]
O=C(Nc1cc(F)c(F)c(F)c1)N1CCC(n2cnnc2C2CC2)C1 (stereo unspecified)	-7%

# Arranged by the number under hNpr1 antagonist (falling): some entries from above.
smiles	hNpr1 antagonist
COc1ccc(C2Cn3nnc(-c4noc(Cc5cccc(F)c5)n4)c3CO2)cc1 (stereo unspecified)	6%
O=C(NCCc1csc(-c2cccnc2)n1)C1CC2(CCNCC2)CN1 (stereo unspecified)	2%
O=C(Nc1cc(F)c(F)c(F)c1)N1CCC(n2cnnc2C2CC2)C1 (stereo unspecified)	-7%

# Later entries:
smiles	hNpr1 antagonist
CC1(C(=O)NCC2CC2)CCc2cnc(Nc3ccccc3)nc21 (stereo unspecified)	-2%[70.6 µM]
O=C(c1ccsc1)N1CC(Oc2ccc(-c3nc(-c4ccccc4)no3)cc2)C1	2%
O=C1c2cc(N3CCOCC3)nc(-c3cccnc3)c2CN1C1COC1	12%[70.6 µM]
CC(=O)N1CC(N(Cc2ccccc2)C2CCOCC2)C1	-1%
COc1cc(CNC(=O)c2cnc3c(c2)N(C(=O)Cc2ccccc2OC)CCC3)cc(OC)c1	-8%
Cc1ccccc1CN1Cc2nc(-c3ccc4c(c3)OCO4)ccc2OCC1=O	-21%[70.6 µM]
COCCn1c2c(c(=O)n1-c1ccccc1)CCN(Cc1ccncc1Cl)C2	-8%[70.6 µM]
COc1ccc(OC)c(CN2CCC3(CC2)OC(=O)N(Cc2cccnc2)C3(C)c2ccccc2)c1 (stereo unspecified)	u
Cc1oc(C(O)c2cccc(O)c2)nc1C(=O)Nc1ccc(N2CCOCC2)cc1 (stereo unspecified)	u
Cc1ccc2c(C(=O)NCc3ccc(F)cc3Cl)cc(NC(=O)C(C)C)cc2n1	-20%
Cc1cncnc1C1CCN(c2cc(C3CC(N)C3)ncn2)CC1 (stereo unspecified)	-4%
COc1ccccc1NC(=O)CC1CCCN(c2cn[nH]c(=O)c2)C1 (stereo unspecified)	6%
Cc1ccc(CC(=O)N2CCC(c3n[nH]c(=O)n3-c3ccc(C)cc3)CC2)cc1	-7%
CSCC(=O)N[C@H]1CCN2C(=O)N(c3cccc(SC)c3)C(=O)[C@@H]2C1	4%[70.6 µM]
CN(Cc1cccnc1)c1nc2c(c(=O)[nH]1)CCN(CCc1ccccc1)CC2	-4%
CCn1c(=O)c2c(cc(C)n2C)n(CC(=O)Nc2ccc(F)cc2F)c1=O	5%
Cc1ccc(CN2CCc3oc(C)c(C(=O)NCCN4CCCCC4)c3C2)cc1	-13%
F[C@@H]1CN(CC2CC2)C[C@@H]1OCc1nc2ccccc2o1	1%[70.6 µM]
Cc1ccc(C)c(C(=O)N2CCCC(n3cc(-c4noc(C)n4)nn3)C2)c1 (stereo unspecified)	3%
Cc1ccc(C(=O)N[C@H]2C[C@@H](c3nc(-c4ccc5c(c4)OCO5)no3)N(C)C2)cc1	-1%[70.6 µM]
Cc1ccc(C)c(CN2CCn3c(nn(Cc4ccccc4C)c3=O)C2=O)c1	10%
COC[C@]1(O)CCN(C(=O)C2CCN(CC(N)=O)CC2)CC1(C)C	3%
CC(C)c1nnc(C2CN(C(=O)c3nccc4ccccc34)CC23CCOCC3)o1 (stereo unspecified)	2%
CO[C@H]1[C@H](NC(=O)c2cc(CC(C)C)no2)c2ccccc2C12CCNCC2	0%
COc1ccc(CN2CCNc3cnc(Oc4ccccc4)cc3C2)cc1O	-4%[70.6 µM]
O[C@H]1[C@H](NCc2ccc(OC(F)(F)F)cc2)[C@H]2CO[C@H](O2)[C@@H]1N1CCN(c2ccccc2)CC1	0%
Cc1nn2c(c1-c1ccccc1C(C)C)N(C(=O)c1ccnn1C)CCC2	-7%[70.6 µM]
CC(C)NS(=O)(=O)c1cc(C(=O)O)cc(-c2ccc3c(c2)OCO3)c1	-2%
CCn1cc(S(=O)(=O)N2CCC(C(=O)N3CCCCCCNC(=O)CC3)CC2)cn1	3%
Cc1cccc(NC(=O)CC2=C3CCCCC3NC2=O)c1 (stereo unspecified)	2%
O=C(NCC1Cn2cccc2CN1Cc1ccccc1)c1ccncc1 (stereo unspecified)	-14%
COCC1CN(C)CC12CCN(S(=O)(=O)c1ccc3c(c1)OCCO3)CC2 (stereo unspecified)	-21%
CC(C(N)=O)N1CCn2nc(CCC(=O)N3CCOCC3)cc2C1 (stereo unspecified)	4%
COc1cc(NC(=O)C2(C)CCCCC(=O)N2)cc(OC)c1 (stereo unspecified)	2%
O=C1[C@@H]2C[C@@H](CN2Cc2ccccc2)Oc2ccccc2N1Cc1ccccc1	-22%[70.6 µM]
CCN(CC)Cc1nc(C2(O)CCN(Cc3ccccc3O)CC2)cs1	2%[70.6 µM]
CS(=O)(=O)N1CCC(C2CCN(C3CCSCC3)C2)CC1 (stereo unspecified)	-1%
O=C(c1ccc(F)cc1)N1CCC(c2nn(Cc3ccccc3)c(=O)[nH]2)CC1	12%
COc1ccc(C(=O)N2CCOC[C@H](Oc3ccc(C(F)(F)F)cc3)C2)cc1	-29%[70.6 µM]
NC(=O)[C@@H](Cc1ccccc1)NC(=O)[C@@H]1C[C@@H](NC(=O)c2cnccn2)CCN1C(=O)CSCC(=O)O	8%
CC(C)(C)OC(=O)NCCCC(=O)NCc1ccnc2[nH]ccc12	-1%
O=C(c1ccccc1)N1CCCC(CN2CCOCC2)CC1 (stereo unspecified)	1%
Cn1ccnc1CN1C(=O)CO[C@H](c2ccc(NC(=O)c3ccnc(Cl)c3)cc2)[C@H]1CO	-1%
O=C(Cc1ccccc1F)N1CCC(c2n[nH]c(=O)n2-c2ccccc2)CC1	0%
CCNC(=O)C1C(c2cccc(NC(=O)c3cccc(C)c3)c2)OC(=O)N1Cc1cccc(Cl)c1 (stereo unspecified)	-21%
CC1(COc2cccnc2)COc2ccc(C(=O)Nc3ccc4[nH]ccc4c3)cc2N1 (stereo unspecified)	-13%[70.6 µM]
Cc1nc(N2CCC(NC(=O)CNC(=O)c3ccccc3)CC2)cc(C(F)(F)F)n1	-1%
CCOc1cc(=O)n2c(c1C(=O)NCc1ccccc1F)CCCC2	4%
O=C(NCCc1noc(-c2ccccc2)n1)C1NCCc2[nH]cnc21 (stereo unspecified)	-5%
Clc1ccc(C2Cn3nnc(-c4noc(CCc5ccccc5)n4)c3CO2)cc1 (stereo unspecified)	-1%

# (further entries)
smiles	hNpr1 antagonist
CC(c1ccc(-c2ccc(CO)cc2CO)cc1)N1CCCC1 (stereo unspecified)	0%
COC(=O)N1CCc2nc(C(C)C)nc(-c3ccc(O)cc3)c2C1	-1%[70.6 µM]
O=C1CCC[C@H]2C3CC(CN(c4nc5ccccc5s4)C3)CN12 (stereo partly specified)	1%
CC[C@H]1CN(C(=O)NC(C)C)CC[C@H]1CC(=O)NC1CC1	3%[70.6 µM]
COc1ccc(C(=O)N2CCCC(Nc3ccc(F)cc3)C2)c(OC)c1 (stereo unspecified)	2%
CN1CCCC1c1nc(C2CN(C(=O)c3cnccn3)C2)no1 (stereo unspecified)	3%
COc1cccc(CN2Cc3cc(NC(=O)c4cccc(F)c4)ccc3OC(C)C2=O)c1 (stereo unspecified)	-25%
CCn1ncc(C(=O)N2CCC3(CC2)CN(Cc2ccccc2)CC3CO)c1C (stereo unspecified)	-5%
COc1ccccc1CN1Cc2cc(NC(=O)Cc3cccs3)ccc2OC(C)C1=O (stereo unspecified)	-10%
Cc1ccccc1S(=O)(=O)N1CCCC(CCC(=O)NCc2ccc(F)cc2)C1 (stereo unspecified)	-1%
c1ccc2[nH]c([C@H]3CCN(CC4CCCCC4)C3)nc2c1	-8%[70.6 µM]
COCCO[C@H]1C(=O)N(C2CCN(S(=O)(=O)c3ccccc3)CC2)[C@H]1c1ccncc1	-1%
COc1cccc(C(=O)N2C[C@@H](CO)[C@H](c3nc(C4CC4)no3)C2)c1	-16%
Cc1ccc(C2Cn3nnc(-c4nc(-c5ccc(F)cc5)no4)c3CO2)c(C)c1 (stereo unspecified)	0%
CCCn1cc(CNc2cc(CC)nc3c(C)c(C)nn23)cn1	0%
Cc1ccc(C2Cn3nnc(-c4noc(-c5ccc(N(C)C)cc5)n4)c3CO2)cc1 (stereo unspecified)	10%
CC(C)=CC(=O)N1CC[C@H](NC(=O)NC2CCCCC2)[C@H]1C(=O)N[C@H](Cc1c[nH]c2ccccc12)C(N)=O	7%
O=C(NCCN1CCOC1=O)c1cc(COc2ccccc2F)[nH]n1	5%
COc1ccc2[nH]c(C(=O)N3CCn4nc(CO)cc4C3)c(C)c2c1	-4%
CCN1c2cc(C(=O)Nc3ccc(Br)c(C)c3)ccc2C(=O)N2CCCCC21 (stereo unspecified)	-1%
CCOc1ccc(C(=O)NC(C)C(=O)N2CCN(c3ccccn3)CC2)cc1 (stereo unspecified)	3%
Cc1cc(=O)n(CC(=O)Nc2cccc(C#N)c2)c(N2CCc3ccccc3C2)n1	-5%
O=C(NCCCN1CCOCC1)c1cccc2c1CCN2C(=O)Nc1ccc(F)cc1	-13%
Cc1ccc(C(=O)NCc2nnc3c(-c4nc(C(C)C)no4)cccn23)cc1C	-5%
COC(=O)[C@H](NC(=O)[C@@H]1C[C@@H](NC(=O)Nc2cccc(F)c2)CCN1C(=O)CCC(=O)O)C(C)C	4%
NC(=O)C1CCN([C@H]2[C@@H]3OC[C@@H](O3)[C@@H](NCc3ccc(OC(F)(F)F)cc3)[C@@H]2O)CC1	6%
CCn1cc(-c2ccc(OC)cc2)cc1C(=O)NCC(=O)OC	-8%
COc1cc(C)c(-c2nc(Cn3cccn3)c(C)o2)cc1C	9%
O=C(Nc1nccs1)c1ccc2c(c1)OCCN(c1cccc(OC(F)(F)F)c1)C2	u
COc1nccnc1NC1CCN(C(=O)Cc2ccccc2F)CC1	-1%
O=C(COc1ccccc1)N1CCC([C@@H]2CNC[C@H]2CO)CC1	3%
COc1cc(CN2C[C@@H](CO)[C@H](c3ccncc3)C2)ccc1F	-1%
Cc1nonc1CN(C)C(=O)c1csc2nc(-c3cccc(C(F)(F)F)c3)cn12	1%
Cc1cnc(C(=O)NC2C[C@H]3CC[C@@H](C2)N3C(=O)c2ccc(OC(F)(F)F)cc2)cn1 (stereo partly specified)	4%

# Screens (PubChem)

# Some of the compounds tested; rates above refer to the full screens.
